Screens: PubChem, several laboratories
LANA-H2A inh – blocks KSHV LANA binding to histone H2A/H2B | Q9QR71 | cell-free LANA-H2A/H2B peptide, fluorescence polarization | inhibition, % (no concentration beside the values) | actives 0.6% (n = 320,000) | AID 2629; in the data active = inhibition mostly above about 10%, no sharp cut-off; inactive = mostly below about 6.7%;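 also: stock transfer was 7.5 nL into about 10 µL; 0% = median of vehicle wells and 100% = median of positive control wells; one replicate is shown; the record names a cut of 25% in any replicate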
Target sequence (Q9QR71 whole entry, looked up): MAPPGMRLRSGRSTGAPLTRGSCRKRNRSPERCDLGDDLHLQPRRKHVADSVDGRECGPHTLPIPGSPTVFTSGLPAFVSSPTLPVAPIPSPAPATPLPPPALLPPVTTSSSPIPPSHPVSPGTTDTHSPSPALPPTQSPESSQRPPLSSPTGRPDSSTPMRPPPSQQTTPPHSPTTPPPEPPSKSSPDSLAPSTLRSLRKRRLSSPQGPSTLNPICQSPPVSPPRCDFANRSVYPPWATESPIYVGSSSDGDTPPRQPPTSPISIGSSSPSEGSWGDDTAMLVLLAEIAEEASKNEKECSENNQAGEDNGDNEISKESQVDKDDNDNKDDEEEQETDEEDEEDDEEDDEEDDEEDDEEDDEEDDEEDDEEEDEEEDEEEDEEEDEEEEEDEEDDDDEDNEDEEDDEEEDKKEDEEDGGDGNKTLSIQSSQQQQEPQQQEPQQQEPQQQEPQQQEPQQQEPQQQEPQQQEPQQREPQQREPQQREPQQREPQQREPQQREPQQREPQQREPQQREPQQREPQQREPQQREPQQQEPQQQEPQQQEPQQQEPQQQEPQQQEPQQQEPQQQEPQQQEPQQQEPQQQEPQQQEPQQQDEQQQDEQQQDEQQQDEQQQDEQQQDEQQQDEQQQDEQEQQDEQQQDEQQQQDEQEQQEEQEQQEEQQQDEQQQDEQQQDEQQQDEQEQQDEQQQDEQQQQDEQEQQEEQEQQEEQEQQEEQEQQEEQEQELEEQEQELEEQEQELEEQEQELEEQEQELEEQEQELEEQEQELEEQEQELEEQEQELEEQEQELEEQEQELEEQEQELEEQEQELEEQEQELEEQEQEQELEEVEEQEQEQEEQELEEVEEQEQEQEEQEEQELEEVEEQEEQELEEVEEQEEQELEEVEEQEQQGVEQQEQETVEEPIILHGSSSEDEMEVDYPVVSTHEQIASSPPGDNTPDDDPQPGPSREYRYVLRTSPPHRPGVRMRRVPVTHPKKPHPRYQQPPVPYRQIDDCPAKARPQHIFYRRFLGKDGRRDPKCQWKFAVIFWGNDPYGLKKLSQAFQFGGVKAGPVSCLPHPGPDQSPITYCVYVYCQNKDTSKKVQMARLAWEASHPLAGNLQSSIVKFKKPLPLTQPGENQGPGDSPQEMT
Beta apoptosis – blocks beta cell apoptosis; actives 0.8% (n = 300,000); protection from apoptosis, % (test concentration not listed); INS-1E cytokine-induced death, ATP luminescence, 48 h; percent of positive-control rescue, neutral wells zero; AID 435005;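 active = all replicates at 75% or more, or half of them and the mean; inconclusive = half reach 75% but not the mean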;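 also: 0% = cytokine-treated negative control wells and 100% = positive control rescue; higher means more ATP so stronger rescue from cytokine killing; wells of about 40 µL received 100 nL stock; the first replicate is given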
A1 inh – inhibitors of the anti-apoptotic protein A1, read as caspase activation. MEF A1-2A-BIM cells, Caspase-Glo 3/7 luminescence, 3 h; percent of clofoctol response, vehicle zero. caspase activation, % (concentration not given with the values). actives 0.066% (n = 330,000). AID 2462;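 active = over half of replicate activation scores above 10%, or exactly half above 10 with the replicate mean above 10; inconclusive = replicate mean below 10 yet half the replicates above 10; inactive = over half of replicates below 10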;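 also: wells of about 30 µL received 50 nL stock; many hits fall short of the cut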
Calb FLC – affects C. albicans growth with fluconazole; C. albicans CaCi-2 (fluconazole-resistant clinical isolate) + fluconazole, Alamar Blue growth, 48 h; growth inhibition, % (test concentration not listed); actives 0.57% (n = 300,000); AID 1979;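 active = most replicates above 75%; inconclusive = exactly half above 75%; inactive = most below 75%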;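 also: all wells also contain fluconazole at 8 µg/ml as a sub-toxic cotreatment; 0% = median of DMSO wells and 100% = median of geldanamycin control wells; wells of about 8 µL received 7.5 nL stock; the first replicate is given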
RanGTP-Imp inh – disruptors of Ran-importin-beta complex formation – biochemical, FRET, CFP-Ran, YFP-importin-beta, homogeneous, primary screen | AID 2216 | cell-free CFP-Ran/YFP-importin-beta FRET ratio | actives 1.1% (n = 300,000) | inhibition, % (no concentration beside the values);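 active = most replicates above 15%; inconclusive = exactly half above 15%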;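 also: 0% = DMSO wells and 100% = Ran loaded with GDP instead of GTP; wells of about 40 µL received 100 nL stock; the first replicate is given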
B2AR ag – activates human beta-2 adrenergic receptor causing internalization | P07550 | Am2.2-beta2AR cells, FAP receptor internalization, flow cytometry; reference of the scale not given here | response, % (concentration not given with the values) | actives 0.43% (n = 340,000) | AID 504454;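 active = response above a set limit, near 3 SD of response in nonfluorescent compounds, cut at about 42% in these data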;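 also: stock transfer was 100 nL into about 11 µL; a reference agonist was the positive control; negative values mostly stem from fluorescent compounds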
UCH37 DUB inh – blocks the human deubiquitinase UCH37. Q9Y5K5. purified proteasome/UCH37, Ub-AMC cleavage fluorescence. inhibition, % (no concentration beside the values). actives 0.33% (n = 330,000). AID 588478;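 active = mean of two replicates above 20%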;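 also: 0% = compound-free wells with enzyme and 100% = wells lacking proteasome; stock transfer was 100 nL into about 20 µL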
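Assay system: Proteasome-bound UCH37. Buffer or medium: pH 7.4 Tris-HCl (50 mM) with ovalbumin, ATP-MgCl2, DTT. Incubation: 30 min preincubation with enzyme, 25 min cleavage at room temperature. Measured by: fluorescence, ex 355 nm, em 460 nm. Read-out basis: percent inhibition. Control set: wells without proteasome as full block, compound-free enzyme plus substrate as uninhibited.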
T cruzi inh – blocks replication of Trypanosoma cruzi; T. cruzi beta-gal in NIH3T3, luminescence, 90 h; inhibition, % (test concentration not listed); actives 1.4% (n = 300,000); AID 1885;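 active = mean inhibition across valid replicates above about 55%, limit read from the data; inconclusive = mean below that limit but half or more replicates reach it; inactive = mean below it, under half of replicates reach it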;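 also: signal also drops with host cell toxicity which is not excluded here; 0% = plate median of DMSO wells and 100% = zero luminescence signal; higher percent means less beta-gal luminescence so fewer parasites; stock transfer was 50 nL into about 50 µL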
Numbers without * were called inactive; ? = inconclusive; . = no result given.

No.	Compound	B2AR ag	A1 inh	UCH37 DUB inh	T cruzi inh	LANA-H2A inh	Beta apoptosis	RanGTP-Imp inh	Calb FLC
1	CC(=O)NC1=C(Nc2ccc(N(C)C)cc2)C(=O)c2ccccc2C1=O	0	-1.0	.	16	7.0	0	-0.4	-1
2	NC(=O)c1ccc(N2CCN(S(=O)(=O)c3ccccc3)CC2)c([N+](=O)[O-])c1	-3	-0.7	3.0	18	-3.3	.	-1.9	42
3	Nc1nc(NCC2CCCO2)nc(Nc2ccc(Cl)cc2)c1[N+](=O)[O-] (stereo not given)	-10	-1.7	5.1	9	-2.1	.	6.6	-5
4	CCOCCCNC(=O)c1ccc(CS(=O)(=O)Cc2ccc(C)cc2)o1	4	0.8	4.9	-5	-7.2	-4	-2.7	-3
5	O=C(COc1ccc(-c2nnco2)cc1)NC1CCCc2ccccc21 (stereo not given)	-7	0.9	4.0	-5	-0.4	-3	-3.6	28
6	COc1cccc(NC(=O)Cn2nnc(C(=O)NCc3ccc4c(c3)OCO4)c2N)c1	12	0.4	1.8	2	1.6	-7	3.3	6
7	CC(C)CCNC(=O)c1c[nH]c2ccc(S(=O)(=O)N3CCOCC3)cc2c1=O	-7	0.8	-23	-3	5.7	1	2.6	16
8	Brc1ccc(Nc2nc(-c3cccnc3)cs2)cc1	1	-0.7	0.7	14	0.6	-1	-4.0	-17
9	O=C(NC1CC2CCC(C1)N2C(=O)NC1CCCCC1)NC12CC3CC(CC(C3)C1)C2 (stereo not given)	-8	0.5	0.9	-14	4.4	-2	-2.1	-9
10	O=C(COc1ccccc1Cl)Nc1ccc(CN2CCCCC2)cc1	-5	0.9	-0.1	8	6.7	-7	31*	-26
11	COc1ccc(CNC(=O)c2sc(=S)n(-c3ccc(OC)cc3)c2N)cc1	0	0.0	5.8	51	1.1	-4	8.9	-21
12	Nc1c(C(=O)NCc2ccccc2)c2nc3ccccc3nc2n1CCCN1CCOCC1	7	-0.8	-279	25	1.6	7	101*	-13
13	COc1ccc(NC(=O)CSCC(=O)Nc2cccc3ncccc23)cc1	9	1.8	2.8	9	0.5	1	4.9	17
14	CN(C)c1ccc(C(C(=O)NC(C)(C)C)N(C(=O)c2csnn2)C2CC2)cc1 (stereo not given)	-7	-0.4	3.6	10	-0.4	1	-0.4	?
15	CCOc1cc(N2CCOCC2)c(OCC)cc1NC(=O)c1ccc(S(C)(=O)=O)cc1	1	-0.1	2.2	0	-3.4	0	2.1	-11
16	Cc1ccc(/C=N/NS(=O)(=O)c2ccc([N+](=O)[O-])cc2)o1	-2	-0.1	.	1	-2.9	-5	2.5	5
17	O=C(CN1CCN(C(=O)c2ccccc2)CC1)Nc1ncc(Br)cc1Br	-6	0.3	5.7	6	-5.3	-8	7.8	1
18	CCc1nnc(NC(=O)CN2C(=O)/C(=C/c3cc(OC)c(OC)c(OC)c3)SC2=S)s1	4	-0.8	1.0	-2	.	9	-5.7	10
19	CCc1ccc(NC(=O)CSCCO)cc1	3	0.7	1.5	-1	2.7	0	1.3	-28
20	CCOC(=O)CSc1nc2ccccc2c(=O)n1C	2	-0.3	-1.8	-10	-10.0	-3	9.2	-4
21	COc1ccc(C2CC(c3ccccc3)=NN2C(=O)CSc2nccc(=O)[nH]2)cc1 (stereo not given)	2	-0.6	-1.3	0	2.2	1	6.3	-2
22	CCc1ccc(C(=O)NC(C(=O)O)C(C)C)cc1 (stereo not given)	-1	0.2	6.8	-9	-3.2	-6	-0.9	-10
23	COc1ccc(C(=O)NNC(=O)CCc2nc3ccccc3c(=O)[nH]2)cc1	4	-0.9	4.5	.	11	-5	.	.
24	Cn1c(=O)[nH]c(=O)c2c1nc(SCCN1CCOCC1)n2CCCc1ccccc1	3	.	2.4	10	-4.2	3	5.0	-1
25	CN(C(=O)COC(=O)C1CCN(S(=O)(=O)c2ccc3c(c2)OCCO3)CC1)C1CCCCC1	-5	0.6	-2.2	3	4.1	.	-1.3	-10
26	O=C(CSc1nc2ccccc2c(=O)n1-c1ccccc1)N1CCC1	-11	0.3	6.9	-18	2.3	-6	2.5	25
27	CCOc1ccccc1N1CCN(C(=O)NCc2ccc(C)cc2)CC1	0	-0.6	3.2	6	0.8	3	3.8	2
28	CCC1Nc2ncnc(N3CCN(c4ccccc4)CC3)c2N(Cc2ccc(Cl)cc2)C1=O (stereo not given)	16	0.9	2.1	9	5.3	9	3.1	14
29	CCOC(=O)N1CCN(CC(O)COc2cc(C)ccc2C(C)C)CC1 (stereo not given)	3	0.0	1.3	0	-0.5	.	-2.7	-3
30	CC(=O)N(CCN(C)C)c1nc2cc3c(cc2s1)OCCO3	-2	1.1	1.2	36	-1.8	-4	4.0	-16
31	CC(C)OC(=O)CN1C(=O)c2ccccc2C1=O	-3	0.0	-1.4	-29	-3.6	5	-1.1	-7
32	O=C(CN1C(=O)NC2(CCCC2)C1=O)N1CCN(S(=O)(=O)c2cccc(C(F)(F)F)c2)CC1	-1	-0.1	0.1	-14	-3.5	-4	6.8	9
33	CN1CCCC(OC(=O)c2ccc(C#N)cc2)C1 (stereo not given)	-7	0.3	1.9	-13	0.5	-5	-2.0	1
34	CCOc1ccc(C(=O)NCCN(C)C)cc1	-3	0.3	4.7	-7	5.3	0	3.7	1
35	O=C(Nc1ccccc1)Nc1n[nH]c2nnc(-c3ccccc3)c(-c3ccccc3)c12	4	-0.3	3.4	5	-9.1	3	2.3	4
36	N#Cc1ccccc1COC(=O)c1ccc2c(c1)OCO2	-4	-2.5	0.0	.	-10	-7	.	.
37	CN1C(=O)CSC1=Nc1ccc(Br)cc1	-4	-0.8	0.2	-14	-0.6	-2	0.0	-10
38	O=C(NCCO)c1cc2ccccc2c(=O)s1	-3	1.3	4.1	-1	-0.6	-10	1.9	-9
39	O=C(NCCc1ccccc1)C(=O)NN=C1CCCC1	-1	-0.9	-1.5	1	3.0	-3	3.1	-20
40	CC1=CN2C(=N)/C(=C/c3ccc([N+](=O)[O-])o3)C(=O)N=C2S1	-497	-1.3	6.4	23	0.5	-6	-16	8
41	CCOC(=O)c1cc(NC(=O)Nc2ccccc2OC)c(C)nc1C	7	-0.8	-0.4	4	-6.3	6	2.3	-2
42	CN1CCN(C(=O)CC2(CC(=O)O)CCCC2)CC1	-4	0.3	0.9	1	0.9	-5	-1.4	9
43	COc1ccc(C(=O)CCC(=O)N2CCN(c3cc(C)ccc3C)CC2)cc1	2	-0.5	6.2	-8	0.3	-7	4.2	-9
44	O=C(CCn1cnc2ccccc2c1=O)Nc1nc2c(s1)CCCC2	22	-0.4	4.5	-4	-1.3	-15	-0.1	-16
45	FC(F)(F)c1cnc(Sc2nc3nccc(-c4ccc(Cl)cc4)n3n2)c(Cl)c1	-13	0.2	-12	55*	-8.3	2	3.9	-23
46	CSCCNC(=O)c1ccc(OC2CCN(CCc3ccccc3)CC2)cc1	-4	0.0	6.8	-26	1.7	-1	-2.5	4
47	O=C(NC(c1ccccc1)c1ccccc1)c1ccc(S(=O)(=O)C(F)F)cc1	-5	0.4	3.8	22	-4.3	6	2.7	14
48	Cc1cc2c(cc1C)C(c1cc(Br)ccc1F)CC(=O)N2 (stereo not given)	4	0.2	2.0	32	9.0	-3	-3.4	-12
49	Cc1ccc(S(=O)(=O)NC2CC(C)(C)NC(C)(C)C2)c(C)c1C	-9	0.0	0.4	-4	0.9	-5	-0.9	0
50	COc1ccc(C2C(C#N)=C(N)N(c3ccccc3C#N)C3=C2C(=O)CCC3)cc1CN1CCCC1 (stereo not given)	-3	-0.2	3.0	-7	-1.2	0	-1.7	-10
51	CCOC(=O)N1CCC(N(CCOC)C(=O)Nc2ccc(Cl)cc2)CC1	-4	0.5	5.3	-14	4.8	1	-8.2	-8
52	C#CCOCCOCCOCCNc1nc(N2CCN(C(=O)[C@H](CCCCN)n3cc(CN)nn3)CC2)nc(N2CCN(C(=O)[C@H](CCCCN)n3cc(CN)nn3)CC2)n1	0	-0.3	20	.	-3.8	-8	.	.
53	CCCOc1ccc(N2C(=O)C3C(C(C)C)NC4(C(=O)c5ccccc5C4=O)C3C2=O)cc1 (stereo not given)	-9	-0.2	0.5	-3	0.2	-7	-10.0	-4
54	CCNC(=S)N1CC(C)OC(C)C1 (stereo not given)	4	0.2	-0.5	-20	5.6	-1	3.2	-10
55	CSc1ccc(Cn2nnc(C(=O)Nc3ccc(C)c(C)c3)c2N)cc1	7	-0.6	0.3	21	-1.9	-2	-4.6	-7
56	O=C(O)c1ccc(COc2cccc(CO)c2)cc1	2	-7.1	2.2	-7	1.7	-5	-1.3	-2
57	CN(C)S(=O)(=O)c1ccc2oc(SCC(=O)Nc3ccccc3F)nc2c1	1	-0.8	-0.2	-4	3.4	2	0.5	0
58	CCc1ccccc1S(=O)(=O)c1c(C)cc(C)nc1Cl	1	1.5	0.6	12	0.6	-5	-1.1	5
59	CCSc1nc(C)cc(C)c1S(=O)(=O)c1ccccc1C	-6	0.3	4.0	25	4.5	.	0.1	52
60	COc1ccc(CC(=O)Nc2ccc(S(=O)(=O)N3CCN(C)CC3)cc2)cc1	11	1.3	1.9	.	3.9	0	.	.
61	COc1ccc(OC)c(NC(=O)C2CC(=O)n3ncnc3N2)c1 (stereo not given)	-3	-2.0	-0.8	-7	-2.3	-5	-0.5	-16
62	CN(Cc1cn(C)nc1-c1ccccc1F)CC1CCCCO1 (stereo not given)	7	-0.1	1.3	2	-6.6	2	-1.4	6
63	COc1ccc(CNC(=O)CN(c2ccc(OC)cc2)S(=O)(=O)c2c(C)[nH]c(=O)[nH]c2=O)cc1	1	.	3.8	-16	.	.	-1.3	9
